# KCNQ2 inh = KCNQ2 potassium channel inhibitors, primary screen, cell-based, CHO-K1, FluxOR thallium flux, B-score (AID 2156). B-score at 10 µM. 20 min; hits give low values; only compounds with negative scores are shown here; some inactives read as strong as hits. 1.1% of 310,000 active;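 active = fluorescence ratio B-score at most minus 3 library SDs, with starting brightness B-score within 2 library SDs, cut at about -5.5 in these data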
# Target sequence (O88943 whole entry, looked up): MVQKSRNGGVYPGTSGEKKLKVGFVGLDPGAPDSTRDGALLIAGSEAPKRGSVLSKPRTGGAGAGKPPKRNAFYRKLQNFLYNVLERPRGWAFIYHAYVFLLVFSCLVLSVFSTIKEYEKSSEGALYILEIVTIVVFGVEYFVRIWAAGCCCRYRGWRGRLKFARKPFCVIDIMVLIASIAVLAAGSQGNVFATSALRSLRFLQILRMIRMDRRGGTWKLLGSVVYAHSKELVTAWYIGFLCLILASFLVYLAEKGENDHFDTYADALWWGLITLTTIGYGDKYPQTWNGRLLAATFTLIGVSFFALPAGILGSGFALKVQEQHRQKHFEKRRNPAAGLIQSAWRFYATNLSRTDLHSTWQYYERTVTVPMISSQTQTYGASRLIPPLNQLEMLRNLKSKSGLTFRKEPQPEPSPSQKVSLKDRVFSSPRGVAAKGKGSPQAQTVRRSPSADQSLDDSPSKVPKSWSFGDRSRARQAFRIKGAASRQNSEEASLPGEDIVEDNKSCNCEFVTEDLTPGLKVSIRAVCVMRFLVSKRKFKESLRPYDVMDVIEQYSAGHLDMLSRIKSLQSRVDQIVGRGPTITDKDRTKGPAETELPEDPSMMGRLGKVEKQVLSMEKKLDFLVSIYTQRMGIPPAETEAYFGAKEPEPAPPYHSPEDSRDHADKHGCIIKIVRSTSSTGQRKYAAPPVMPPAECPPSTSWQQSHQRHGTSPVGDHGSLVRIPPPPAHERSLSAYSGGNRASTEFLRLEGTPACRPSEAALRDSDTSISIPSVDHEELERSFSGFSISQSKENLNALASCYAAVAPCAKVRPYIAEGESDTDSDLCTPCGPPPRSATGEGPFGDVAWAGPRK
# KCNQ2 inh baseline = also measured in KCNQ2 inh; calls as there; B-score; measured here: initial fluorescence intensity artifact check;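 brightness before thallium and not channel activity; 0 = typical well and far values either way flag optical interference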
# Starred values were filed as active, the others as inactive; i = inactive.
KCNQ2 inh,KCNQ2 inh baseline,Compound
i,-1.9,COc1ccc(C(=O)Nc2c(-c3ccccc3)nc3ccccn23)c(OC)c1
i,0.65,COc1ccccc1C(=O)NC(=O)COc1ccc(Cl)cc1Cl
i,0.05,C/C(=N\OCc1ccc(C#N)cc1)c1cc2ccccc2o1
i,2.5,COc1ccccc1NC(=O)CCN1CCN(C)CC1
i,0.83,CC1CCc2nc(NC(=O)C3CCCO3)sc2C1 (stereo not drawn)
i,-0.42,C/C(=N\NC(=O)c1ccco1)c1ccc(NC(=O)c2ccccc2)cc1
i,0.09,c1ccc(NCc2ccccn2)cc1
i,0.03,COc1ccc2c(c1)CC/C(=C\C=C\c1ccccc1OC)C2=O
i,-0.14,Cc1ccc(SCC(=O)O/N=C(\N)c2cccc([N+](=O)[O-])c2)cc1
i,0.94,COCCNC(=O)C(c1ccc(F)cc1)N(CCOC)C(=O)CCC(=O)Nc1ccccn1 (stereo not drawn)

# Of the compounds above, four have nitrogen in an aromatic ring.
KCNQ2 inh,KCNQ2 inh baseline,Compound
i,-1.9,COc1ccc(C(=O)Nc2c(-c3ccccc3)nc3ccccn23)c(OC)c1
i,0.83,CC1CCc2nc(NC(=O)C3CCCO3)sc2C1 (stereo not drawn)
i,0.09,c1ccc(NCc2ccccn2)cc1
i,0.94,COCCNC(=O)C(c1ccc(F)cc1)N(CCOC)C(=O)CCC(=O)Nc1ccccn1 (stereo not drawn)

# Following part.
KCNQ2 inh,KCNQ2 inh baseline,Compound
i,-1.1,O=C(NCCc1csc(-c2ccccc2)n1)c1ccc(Br)o1
i,-0.68,COc1ccc(NS(=O)(=O)c2cc3c(cc2C)N(C(C)=O)CCO3)cc1OC
i,0.08,CCN(C(=O)c1cc2c(s1)-c1ccccc1OC2)c1cc(OC)ccc1OC
i,-0.02,O=C1CCN(Cc2ccc(O)cc2)CCN1[C@H](CO)c1ccccc1
i,1.1,COCCn1nc2cc(C(=O)NCC34CC5CC(CC(C5)C3)C4)ccc2c1OC
i,0.02,CC(=O)c1cnc2c(-c3ccccc3)c(C)nn2c1C
i,3.2,O=C(Nc1cccnc1)c1ccc2c(c1)C(=O)N(CC1CCCO1)C2=O (stereo not drawn)
i,0.01,Cc1cccc(C(=O)N[C@H](C(=O)OCC(=O)NC2CCS(=O)(=O)C2)C(C)C)c1 (stereo partly drawn)
i,-0.89,Cc1ccc(SCC(=O)Nc2ccccc2N2CCOCC2)cc1
i,0.39,Cc1ccc(S(=O)(=O)CCc2nnc(NC(=O)COc3cccc(C)c3)s2)cc1
i,0.28,CCN(CC)Cc1c(NC(=O)c2ccccc2)sc(C)c1C
i,-0.57,Cn1cnnc1SCC(=O)c1cccc([N+](=O)[O-])c1
i,0.17,CC(=C1C(=O)c2ccccc2C1=O)N1CCc2ccccc2C1
i,-0.86,COc1ccc(S(=O)(=O)CC(=O)Nc2ccccc2Cl)cc1
i,-1.7,O=C(c1cccc(S(=O)(=O)N2CCc3ccccc3C2)c1)N1CCN(c2ccccc2)CC1
i,-0.75,COc1ccc(C2=CSC3=NCCN23)cc1[N+](=O)[O-]
i,1.1,O=C(/C=C/c1ccc(Cl)cc1)N1CCN(c2ccccn2)CC1
i,-1.4,CC(C)(C)NCC(O)COc1c(F)cc(Br)cc1F (stereo not drawn)
i,0.11,CN(Cc1ccccc1)c1nc2c(c(=O)[nH]c(=O)n2C)n1CCCSc1ncccn1
i,-2.5,CSCC[C@H](NC(=O)OC(C)(C)C)c1nnc(SCc2ccccc2)o1
i,-0.71,COc1cccc(OCc2nnc3n2N=C(c2ccccc2)C(CC(=O)O)S3)c1 (stereo not drawn)
i,-0.85,Cc1ncc([N+](=O)[O-])n1CCOC(=O)NC(NCc1ccccc1Cl)C(Cl)(Cl)Cl (stereo not drawn)
i,1.3,COc1cccc(OCC(O)CN2CCN(C(c3ccccc3)c3ccccc3)CC2)c1 (stereo not drawn)
i,1.1,O=C(c1cccs1)c1coc2ccc(O)c(CN3CCOCC3)c12
i,-1.3,CC(C)c1nc(SCC(=O)N2CC(=O)Nc3ccccc32)c2ccccc2n1
i,1.5,CCOC(=O)C1CCN(C(=O)c2cc3c(=O)n4ccccc4nc3n2C)CC1
i,0.01,COC(=O)c1oc2c(c1C)C(=O)CCC2
i,-1.9,CC1CCCN(C(=S)NCCc2ccccc2)C1 (stereo not drawn)
i,0.82,Cc1ccc(-n2ncc3c(NNC(=O)c4cccs4)ncnc32)cc1
i,-0.32,COc1ccc(C2C3=C(Nc4ncnn42)c2ccccc2CCC3)cc1 (stereo not drawn)
i,-0.05,Cc1cc(NCc2ccccn2)nc2ccccc12
i,-1.4,C=CCOC(=O)C(C#N)c1nc2ccccc2nc1N1CCN(c2ccccc2OCC)CC1 (stereo not drawn)
i,-1.1,O=C(Nc1ccccn1)c1ccc2c(c1)OCO2
i,-0.12,CCN(C(=O)COC(=O)c1cc([N+](=O)[O-])ccc1N1CCOCC1)C1CCS(=O)(=O)C1 (stereo not drawn)
i,-0.72,O=C(NCCc1ccccc1)c1cccc(Br)c1
i,0.03,Cc1ccc(S(=O)(=O)Nc2ccc3c(c2)nc(C)n3C)cc1
i,-0.31,O=C(/C=C/c1cccc(O)c1)c1cccnc1
i,1.1,Cc1ccccc1-n1c(=O)c2c(n3cnnc13)-c1ccccc1CC21CCCCC1
i,-1.1,CCCCCn1c(=O)[nH]c2cc(C(=O)NCCN3C(C)CCCC3C)ccc2c1=O (stereo not drawn)
i,1.1,N#Cc1ccccc1S(=O)(=O)N1CCN(CC(=O)NC(=O)NC2CCCCC2)CC1
-8*,-2.4*,Cc1nn(C(C)(C)C)c(OC(=O)c2cccs2)c1Sc1ccccc1
i,0.32,Cc1ccnc(NC(=O)c2cc3ccccc3o2)c1
i,-1.4,Cc1cccc(N2CCN(C(=O)CCCn3c(=S)[nH]c4cc5c(cc4c3=O)OCO5)CC2)c1C
i,-2,CS(=O)(=O)c1nc(-c2ccccc2)cc(C(F)(F)F)n1
i,0.35,COCC(=O)Nc1nnc(COc2ccccc2)s1
i,-0.66,CCOC(=O)c1sc(NS(=O)(=O)c2ccccc2Cl)nc1C
i,-0.01,O=c1nc(SCc2c(F)cccc2Cl)nc(-c2ccccc2)[nH]1
i,1.5,O=C(O)C1CCN(C(=O)c2csc(-c3ccc4c(c3)CCO4)n2)CC1
i,-0.28,CCN(CC)c1ccc(NC(=O)Nc2ccc(C(C)=O)cc2)cc1
i,-0.91,CC(C)(C)Cc1nnc(NC(=O)Cc2ccc([N+](=O)[O-])cc2)s1

# Next section.
KCNQ2 inh,KCNQ2 inh baseline,Compound
i,-0.02,Cc1ccn(CCC(=O)O)n1
i,-0.9,CCNC(=O)CSc1nnc(CN2CCCCCC2=O)n1-c1ccccn1
i,1.2,CN1CCCN(C(=O)C2CCC(C(=O)N3CCCN(C)CC3)CC2)CC1 (stereo not drawn)
i,0.58,O=C(c1ccc2c(=O)n3c(nc2c1)CCCCC3)N1CCN(C(c2ccccc2)c2ccccc2)CC1
i,-0.94,Cn1c(=O)[nH]c(=O)c2c1nc(SCC(N)=O)n2Cc1cccc(Br)c1
i,0.64,O=C(CCSCc1ccc(Cl)cc1)NCc1cccs1
i,-0.22,COc1ccc(Cc2nc3ccccc3n2CC(=O)N/N=C/c2ccccc2)cc1OC
i,-0.5,COc1ccc(-c2csc3ncnc(N4CCN(c5ccccc5O)CC4)c23)cc1
i,-1,CCOc1ccc(NC(=O)CSc2nc3ccccc3c(=O)n2CCCC(=O)N2CCCC2)cc1
i,4.4,CCN(CC)CCCn1c2c(c(SCC(=O)Nc3cc(C)on3)nc1=O)CCC2
i,0.16,Cc1c(C=O)c(C=O)c(C)n1Cc1ccccc1
i,-0.41,Cc1ccc(NC(=O)N(CCC(=O)O)Cc2ccccc2)cc1
i,1.7,C=CCOc1ccc(/C(O)=C2/C(=O)C(=O)N(CCN3CCOCC3)C2c2ccc(C)cc2)cc1 (stereo not drawn)
i,-0.57,CC(=O)Oc1ccc(OC(C)=O)c(SCCCCCN2CCOCC2)c1
i,0.03,Cc1ccc(NC(=O)c2ccc(S(=O)(=O)NCc3ccco3)cc2)nc1
i,-0.01,CCNC(=S)N1CCC(C(=O)c2ccc(Cl)cc2)CC1
i,1.9,Cc1cc(NS(=O)(=O)c2ccc(NC(=O)/C=C/c3c(F)cccc3Cl)cc2)no1
-5.7*,0.51*,CCN(CC)S(=O)(=O)c1cccc(-c2nnc(SCC#N)n2Cc2ccccc2)c1
i,-0.2,O=C(CN1CCN(S(=O)(=O)c2ccc(Br)cc2)CC1)N/N=C/c1cc([N+](=O)[O-])ccc1Cl
i,-0.13,CC(C)(C)c1ccc(-n2ncc3c2CCCC3NC(=O)CN2CCOC2=O)cc1 (stereo not drawn)
i,-1.3,Cc1ccc(S(=O)(=O)N(C)C)cc1NC(=O)COC(=O)c1ccc2c(c1)NC(=O)CS2
i,2.7,C#Cc1ccc([C@@H]2C=C(C(=O)NCc3ccccc3)O[C@H](OCc3ccc(CO)cc3)C2)cc1
i,1.1,C=CCSc1nnc(NC(=O)CN2C(=O)NC3(CCCC3)C2=O)s1
i,0.95,Cc1cc(NC(=O)CCSc2nc(-c3ccco3)cc(C(F)(F)F)n2)no1
i,0.49,COc1ccc(C(C#N)N2N=C(C)CC2c2ccccc2)cc1 (stereo not drawn)
i,0.76,COc1ccc(-c2cc(C(=O)N3CC4(C)CC3CC(C)(C)C4)no2)cc1OC (stereo not drawn)
i,-0.32,Fc1ccccc1Cc1noc(CN2CCCC(CN3CCOCC3)C2)n1 (stereo not drawn)
i,-1.5,C=CCNC(=O)c1cnc(-c2ccccc2)nc1-c1ccccc1
i,-0.8,CCC1(C)CC(c2csc(N)n2)CCO1 (stereo not drawn)
i,2.5,O=c1c(O)cccc2cc(O)c(O)c(O)c12

# Random excerpt: 7 entries already listed.
KCNQ2 inh,KCNQ2 inh baseline,Compound
i,2.5,O=c1c(O)cccc2cc(O)c(O)c(O)c12
i,0.76,COc1ccc(-c2cc(C(=O)N3CC4(C)CC3CC(C)(C)C4)no2)cc1OC (stereo not drawn)
i,1.1,O=C(/C=C/c1ccc(Cl)cc1)N1CCN(c2ccccn2)CC1
i,0.65,COc1ccccc1C(=O)NC(=O)COc1ccc(Cl)cc1Cl
i,-0.71,COc1cccc(OCc2nnc3n2N=C(c2ccccc2)C(CC(=O)O)S3)c1 (stereo not drawn)
i,-0.02,O=C1CCN(Cc2ccc(O)cc2)CCN1[C@H](CO)c1ccccc1
i,4.4,CCN(CC)CCCn1c2c(c(SCC(=O)Nc3cc(C)on3)nc1=O)CCC2

# The list continues:
KCNQ2 inh,KCNQ2 inh baseline,Compound
i,-1.1,O=C(CSc1nc(-c2ccccc2)cs1)Nc1ccccc1[N+](=O)[O-]
i,-1.2,CN(Cc1c(F)cccc1Cl)C(=O)c1ccc(NS(=O)(=O)c2ccc3[nH]c(=O)[nH]c3c2)cc1
i,3.2,CCN(CC)C1CCN(C(=O)CCn2nnnc2CN2CCOCC2)C1 (stereo not drawn)
i,-0.03,CCc1ccc(C(=O)NCc2cccs2)s1
i,1.3,Cn1c(=O)[nH]c(=O)c2c1nc(NC1CCCCC1)n2CCO
i,-0.29,CC(C)(C)OC(=O)N1CCC[C@H]1C(=O)N/N=C/c1cccc2nccnc12
i,0.13,N#C/C(=C\c1ccccc1)C(=O)Nc1cc(S(=O)(=O)N2CCOCC2)ccc1N1CCCC1
i,-0.47,Cc1ccc(-n2c(N)c(C(=O)NCc3cccnc3)sc2=S)cc1
i,-0.02,CCC1CN(C(=O)N2CCC(C(=O)NCc3ccc(F)cc3)CC2)c2ccccc2O1 (stereo not drawn)
i,1.2,O=C(CSc1n[nH]c(=O)n1C1CC1)NCc1ccccc1Cl
i,-0.61,COc1cc(NC(=O)c2ccc(N3CC4CC(C3)c3cccc(=O)n3C4)c(NC(=O)c3ccncc3)c2)cc(OC)c1OC (stereo not drawn)
i,1.2,COc1cc(/C=N/NC(=O)CCn2nc(C)cc2C)ccc1O
i,0.67,CCc1nnc(NC(=O)CSc2nnc(-c3ccoc3C)n2-c2ccc(C)cc2)s1
-6.8*,-0.01*,O=C(COc1ccc(F)cc1)N(c1ccccn1)C1CCCCC1
i,1.5,Cn1c(SCc2nc3ccccc3s2)nnc1-c1cccs1
i,0.34,Oc1ccc(-c2csc(-c3c[nH]c4ccccc34)n2)c(O)c1
i,0.14,Cc1cc(C)cc(NC(=O)c2cccc(NC(=O)C3C4CC5OC(=O)C3C5C4)c2)c1 (stereo not drawn)
-6.6*,-0.73*,CC(C)(C)N(Cc1ccccc1)C(=O)CCc1ccccc1
-5.9*,1.2*,CC#C[C@]1(O)CC[C@H]2[C@@H]3CCC4=CC(=O)CCC4=C3[C@@H](c3ccc(N(C)C)cc3)C[C@@]21C
i,-0.52,Cc1cnc(CN(C)Cc2nc(Cc3cccc(C(F)(F)F)c3)no2)[nH]1
i,-1.3,CCc1cccc(NC(=O)C2CCN(S(=O)(=O)c3ccc4c(c3)CC(C)N4C(C)=O)CC2)c1 (stereo not drawn)
i,0.8,O/N=C1\CCCc2c1nc(-c1ccccc1F)n2O
i,1.3,CSCC(C)N1CCC(n2nccc2NC(=O)CCc2ccccc2)CC1 (stereo not drawn)
i,-1.5,COc1ccc(/C=N\NC(=O)c2ccc(-c3ccccc3)cc2)c(OC)c1OC
i,-0.26,Cc1ccc(N2CCN(C(=O)c3nn(C)c4c3CS(=O)(=O)c3ccccc3-4)CC2C)cc1 (stereo not drawn)
i,1.6,COc1ccccc1-n1c(SCC(=O)Nc2ccccc2F)nc2[nH]ncc2c1=O

# Assay outcomes deposited in PubChem by Johns Hopkins Ion Channel Center.

# A portion of the library; count on the stated rates, not on these rows.
